miR-21 FLuc: raises the signal of a miR-21 reporter | AID 2288 | HeLa miR-21 FLuc reporter, luciferase, 48 h | Potency, µM (highest dose often 38.3 µM), for inactives: at the highest dose reporter change, positive = more light | 340,000 tested, under 10 active; active = well fitted rising curve with a large enough effect; inconclusive = small, poorly fitted or top-dose-only effect; inactive = no such curve, though single readings can be large or run the other way;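 further: % of control where 0% means no effect; miR-21 action dims this reporter so a rising signal means less miR-21 action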
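HeLa cells stably expressing CMV-driven firefly luciferase with a downstream miR-21 binding sequence, endogenously expressing miR-21, were treated with titrations (up to about 40uM final) for 48 hours at 37 degree Celsius. Luciferase luminescence was read after lysis.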
Rango release inh: inhibitors of RanGTP-induced Rango-importin beta complex dissociation; 340,000 tested, 0.071% active; Biochemical FRET Rango-importin beta, RanGTP-induced dissociation; AID 540253; Potency, µM (series often up to 46.1 µM), without a hit: at the highest dose activity change, negative = inhibition; active means falling FRET ratio curve, often poorly fitted, with flat reads before Ran was added; inconclusive means other falling curves, or compound fluorescence or quenching; inactive means flat or rising ratio curve;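 further: potency means the concentration at half of the fitted maximal effect; % of control where 0% means no effect; nearly all actives have a fitted effect of over 45% in size; -100% = wells without RanGTP and RCC1; the record marks most hits as doubtful in a second field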
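Quantitative HTS using a FRET biosensor: 0.1 uM Rango, 0.25 uM importin beta, 0.6 uM Ran, 2 mM GTP, 0.2 uM RCC1 final, PBS with DTT, Tween-20 and BSA. Post-read taken 45 min after Ran addition.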
GLA inh pH 4.5: inhibitors of human alpha-galactosidase A at pH 4.5 | P06280 | purified enzyme, 4-MU-alpha-Gal fluorescence, pH 4.5 | activity change, negative = inhibition, % at 105 µM | 230,000 tested, under 10 active | AID 1467; inconclusive = small, poorly fitted or top-dose-only inhibition, or a rising curve; inactive = flat fitted curve, though single readings scatter; no compound was filed as active;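 further: 0% = full activity with enzyme and -100% = basal without enzyme; dose as in the result columns while the protocol names 77 µM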
Rango complex inh: Rango-importin beta binding inhibition. Rango CFP/YFP FRET sensor + importin beta, 45 min. Potency, µM (titrated, usually from 92.2 µM), inactives show at the top dose inhibition of complex formation. 340,000 tested, 0.031% active; active = rising FRET ratio curve, often small or poorly fitted; inconclusive = mostly compound fluorescence or quenching in the first reads; inactive = flat curves in all reads;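 further: potency means the concentration at half of the fitted maximal effect; 0% = DMSO wells and 100% = buffer wells lacking importin beta; nearly all actives have a fitted effect of over 15% in size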
Target sequence (Q14974 whole entry, looked up): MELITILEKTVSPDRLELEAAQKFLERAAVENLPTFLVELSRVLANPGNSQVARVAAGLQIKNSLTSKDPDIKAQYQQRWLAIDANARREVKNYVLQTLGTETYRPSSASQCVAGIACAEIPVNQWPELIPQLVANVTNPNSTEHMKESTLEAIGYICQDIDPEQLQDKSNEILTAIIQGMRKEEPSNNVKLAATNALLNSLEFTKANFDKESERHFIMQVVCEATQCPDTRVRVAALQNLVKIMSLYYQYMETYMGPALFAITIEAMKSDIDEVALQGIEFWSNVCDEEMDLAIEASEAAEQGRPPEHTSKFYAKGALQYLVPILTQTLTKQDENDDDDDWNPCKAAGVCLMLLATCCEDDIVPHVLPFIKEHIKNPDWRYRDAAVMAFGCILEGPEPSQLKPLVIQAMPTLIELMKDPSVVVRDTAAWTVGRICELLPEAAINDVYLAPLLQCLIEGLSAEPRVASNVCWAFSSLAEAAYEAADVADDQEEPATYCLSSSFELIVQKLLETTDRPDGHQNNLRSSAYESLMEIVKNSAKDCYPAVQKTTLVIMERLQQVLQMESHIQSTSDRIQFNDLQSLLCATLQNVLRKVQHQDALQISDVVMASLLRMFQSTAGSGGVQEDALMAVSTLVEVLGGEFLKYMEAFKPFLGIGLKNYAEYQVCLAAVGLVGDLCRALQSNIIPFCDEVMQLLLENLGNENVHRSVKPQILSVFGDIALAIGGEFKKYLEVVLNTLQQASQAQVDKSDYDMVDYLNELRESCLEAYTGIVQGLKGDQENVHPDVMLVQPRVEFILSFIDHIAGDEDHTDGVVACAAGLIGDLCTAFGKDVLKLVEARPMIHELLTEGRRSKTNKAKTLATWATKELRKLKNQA
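FRET biosensor Rango (snurportin 1 IBB between N-terminal EYFP and C-terminal Cerulean), 50 nM in PBS/1 mM DTT/0.02% Tween-20/0.1% BSA, preincubated 5 min RT with compound; 0.125 microM importin beta added, 45 min RT, CFP/YFP FRET ratio read.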
* marks the source's active call; other numbers are inactive results; & = joins results of further samples. The list is partial. The share of hits here may be higher or lower than overall.

Sample of the layout:
How did Cc1ccc(-c2nn(CC(=O)NCC3CCCO3)c(=O)c3ccccc23)cc1 (centres undefined) do in these assays?
miR-21 FLuc: -5%; Rango release inh: 7%; GLA inh pH 4.5: 3; Rango complex inh: 3.4%

How did CCOC(=O)C1(Cc2cccc(F)c2)CCN(C(=O)c2cnccn2)CC1 do in these assays?
miR-21 FLuc: -15%; Rango release inh: -16%; GLA inh pH 4.5: 3; Rango complex inh: 0.5%

What do the screens show for `Cc1c(CCO)c(=O)[nH]n1S(=O)(=O)c1ccc(F)cc1`?
miR-21 FLuc: 0%; Rango release inh: -3%; Rango complex inh: -2.0%

What do the screens show for `Cc1cccc(NC(=O)c2cc([N+](=O)[O-])ccc2N2CCCCC2)n1`?
miR-21 FLuc: -4%; Rango release inh: 13%; GLA inh pH 4.5: -9; Rango complex inh: -1.2%

Results, from the first entry:
How did Cc1ccc(-c2nn(CC(=O)NCC3CCCO3)c(=O)c3ccccc23)cc1 (centres undefined) do in these assays?
miR-21 FLuc: -5%; Rango release inh: 7%; GLA inh pH 4.5: 3; Rango complex inh: 3.4%

How did CCOC(=O)C1(Cc2cccc(F)c2)CCN(C(=O)c2cnccn2)CC1 do in these assays?
miR-21 FLuc: -15%; Rango release inh: -16%; GLA inh pH 4.5: 3; Rango complex inh: 0.5%

What do the screens show for `Cc1c(CCO)c(=O)[nH]n1S(=O)(=O)c1ccc(F)cc1`?
miR-21 FLuc: 0%; Rango release inh: -3%; Rango complex inh: -2.0%

What do the screens show for `Cc1cccc(NC(=O)c2cc([N+](=O)[O-])ccc2N2CCCCC2)n1`?
miR-21 FLuc: -4%; Rango release inh: 13%; GLA inh pH 4.5: -9; Rango complex inh: -1.2%

Results for O=S(=O)(NCc1ccc2c(c1)OCO2)c1cnc[nH]1 ?
miR-21 FLuc: -2%; Rango release inh: 12%; GLA inh pH 4.5: inconclusive; Rango complex inh: -0.9%

How did Cn1c(=O)c2c(ncn2CC(=O)OCC(=O)c2ccc(F)c(F)c2)n(C)c1=O do in these assays?
miR-21 FLuc: -1%; Rango release inh: -10%; Rango complex inh: -2.3%

How did CCC(=O)NS(=O)(=O)c1cccnc1Nc1ccc(Cl)cc1 do in these assays?
miR-21 FLuc: -6%; Rango release inh: 4%; GLA inh pH 4.5: 3; Rango complex inh: -2.2%

How did CCCn1cc(CN2CCC(Oc3ccc(C(=O)N4CCCC4)cc3)CC2)c(C)n1 do in these assays?
miR-21 FLuc: -4%; Rango release inh: inconclusive; Rango complex inh: -1.0%

How did COc1ccc(-c2nc(Cn3c(SCc4ccc(F)cc4)nc4ccncc43)c(C)o2)cc1OC do in these assays?
miR-21 FLuc: -20%; Rango release inh: 2%; GLA inh pH 4.5: -11; Rango complex inh: 0.9%

What do the screens show for `CCOC(=O)N1CC=C2C(C#N)=C(N)C(C#N)(C#N)[C@H](c3ccc(OC(C)C)c(OCC)c3)[C@H]2C1`?
miR-21 FLuc: -8%; Rango release inh: inconclusive; GLA inh pH 4.5: -7; Rango complex inh: inconclusive

How did COc1cccc(OC)c1C(=O)N=c1sc2cc(S(C)(=O)=O)ccc2n1C do in these assays?
miR-21 FLuc: -1%; Rango release inh: 22%; GLA inh pH 4.5: -21; Rango complex inh: -0.7%

How did O=S(=O)(N=C(NS(=O)(=O)c1ccc(Cl)cc1)c1ccccc1)c1ccc(Cl)cc1 do in these assays?
Rango release inh: 9%; Rango complex inh: 2.0%

How did COc1ccc(NC(=O)CSc2nc(N)c3cc4c(nc3n2)CCCC4)cc1 do in these assays?
miR-21 FLuc: -55%; Rango release inh: 0%; GLA inh pH 4.5: -4; Rango complex inh: -1.9%

How did O=C(COc1ccccc1)N1CCN(S(=O)(=O)Cc2ccccc2)CC1 do in these assays?
miR-21 FLuc: -10%; Rango release inh: -9%; GLA inh pH 4.5: 6; Rango complex inh: -0.9%

What do the screens show for `O=C(NCCc1ccccc1Cl)C1CCC(=O)N(C2CCCCCC2)C1` (centres undefined)?
miR-21 FLuc: -2%; Rango release inh: 7%; Rango complex inh: 1.1%

Results for CC1(c2ccncc2)Nc2ccccc2-c2nc3ccccc3n21 (centres undefined) ?
miR-21 FLuc: -28%; Rango release inh: -3%; GLA inh pH 4.5: 3; Rango complex inh: inconclusive

How did O=C(O)COc1nsnc1N1CCOCC1 do in these assays?
miR-21 FLuc: 0%; Rango release inh: 1%; GLA inh pH 4.5: 2; Rango complex inh: -3.4%

Results for COc1ccc(C2=NOC(CN3C(=O)c4ccccc4S3(=O)=O)C2)cc1 (centres undefined) ?
miR-21 FLuc: -54%; Rango release inh: 14%; GLA inh pH 4.5: 2; Rango complex inh: 1.0%

Results for Cc1ccc(CN2C(=O)c3ccccc3C2C(=O)NCc2cccnc2)cc1 (centres undefined) ?
miR-21 FLuc: -1%; Rango release inh: -12%; GLA inh pH 4.5: -8; Rango complex inh: inconclusive

What do the screens show for `CCOC(=O)C1CCN(C(=O)c2c(-c3c(F)cccc3Cl)noc2C)CC1`?
miR-21 FLuc: -6%; Rango release inh: 18%; GLA inh pH 4.5: -4; Rango complex inh: -1.6%

What do the screens show for `O=C1CC(C(=O)NC2CCCCC2)C(c2ccccc2)O1` (centres undefined)?
miR-21 FLuc: -10%; Rango release inh: 0%; GLA inh pH 4.5: 2; Rango complex inh: 0.2%

How did CC(C)CCNC(=O)COc1cccc2c1OC(C)(C)C2 do in these assays?
miR-21 FLuc: -7%; Rango release inh: -2%; GLA inh pH 4.5: 1; Rango complex inh: -3.9%

Results for COc1ccccc1S(=O)(=O)Cc1ccc(C(=O)NC2CCCCCC2)o1 ?
miR-21 FLuc: -1%; Rango release inh: 10%; Rango complex inh: -0.1%

Results for COc1cc2c(cc1OC)C(Nn1cnnc1)=NC1(CCCC1)C2 ?
miR-21 FLuc: 0%; Rango release inh: -18%; GLA inh pH 4.5: -4; Rango complex inh: 4.7%

Results for CCOc1ccc(Cl)cc1S(=O)(=O)n1cnc2cc(C)c(C)cc21 ?
miR-21 FLuc: -3%; Rango release inh: 2%; GLA inh pH 4.5: -7; Rango complex inh: 2.5%

How did COC(=O)Cn1c(O)c(N=NC(=O)OC)c2ccccc21 do in these assays?
miR-21 FLuc: 1%; Rango release inh: 1%; GLA inh pH 4.5: -4; Rango complex inh: -0.8%

What do the screens show for `O=C(CSc1nc2ccccc2c(=O)n1-c1ccccc1)N/N=C/C=C/c1ccccc1[N+](=O)[O-]`?
miR-21 FLuc: -5%; Rango release inh: -1%; GLA inh pH 4.5: -4; Rango complex inh: 0.2%

What do the screens show for `COCCNc1cnn(-c2ccccc2)c(=O)c1Cl`?
miR-21 FLuc: -26%; Rango release inh: 4%; Rango complex inh: -3.7%

Results for O=S(=O)(CC(CN1CCCCC1)N1CCCCC1)c1ccc2ccccc2c1 (centres undefined) ?
miR-21 FLuc: 21%; Rango release inh: -4%; GLA inh pH 4.5: -1; Rango complex inh: 1.1%

How did Cc1c(C(=O)O)nn(-c2ccccc2)c(=O)c1C#N do in these assays?
miR-21 FLuc: 4%; Rango release inh: -4%; GLA inh pH 4.5: -1; Rango complex inh: -1.9%

What do the screens show for `CSCC[C@H](NC(=O)OC(C)(C)C)c1nnc(SCC(=O)Nc2c(C)cccc2C)o1`?
miR-21 FLuc: 0%; Rango release inh: 5%; GLA inh pH 4.5: 3; Rango complex inh: -0.1%

How did CSc1nnc2ccc(-c3cccs3)nn12 do in these assays?
miR-21 FLuc: -4%; Rango release inh: 5%; GLA inh pH 4.5: -17; Rango complex inh: -0.6%

How did CCN(CC)CCNc1nc(-c2ccccc2)c2c(c1C#N)CC(C)(C)OC2 do in these assays?
miR-21 FLuc: -2%; Rango release inh: 4%; GLA inh pH 4.5: 4; Rango complex inh: -3.9%

What do the screens show for `Cc1ccc(NC(=O)C2CCCN(S(=O)(=O)c3ccc4[nH]c(=O)ccc4c3)C2)c(C)c1` (centres undefined)?
miR-21 FLuc: 0%; Rango release inh: -1%; Rango complex inh: 4.4%

How did CN1C(=O)/C(=C2\SC(=S)N(C(CCC(=O)O)C(=O)O)C2=O)c2ccccc21 (centres undefined) do in these assays?
miR-21 FLuc: -1%; Rango release inh: 1%; GLA inh pH 4.5: 0; Rango complex inh: 1.0%

What do the screens show for `CC(C)(C)NC(=O)C1N(c2cccnc2)C(=O)C2C(C(=O)Nc3ccccc3F)C3(C)C=CC21O3` (centres undefined)?
miR-21 FLuc: -1%; Rango release inh: -10%; GLA inh pH 4.5: 6; Rango complex inh: 4.2%

Results for Cc1ccc(C(=O)N2CCCC(C(=O)c3cc(F)ccc3F)C2)s1 (centres undefined) ?
miR-21 FLuc: -2%; Rango release inh: 15%; GLA inh pH 4.5: 4; Rango complex inh: 3.2%

How did CCN(C[C@H]1N[C@@](CC)(C(=O)OC)[C@H]2C(=O)N(C)C(=O)[C@@H]12)S(=O)(=O)c1ccc(-c2ccccc2)cc1 do in these assays?
Rango release inh: 8%; Rango complex inh: 0.1%

What do the screens show for `O=C(OCc1nnc(-c2ccccc2)o1)c1cc2ccccc2cc1O`?
miR-21 FLuc: 2%; Rango release inh: -7%; GLA inh pH 4.5: 2; Rango complex inh: -2.2%

How did CC1=NN(C(N)=S)C(=O)C1N=Nc1ccc(F)cc1 (centres undefined) do in these assays?
miR-21 FLuc: -55%; Rango release inh: 6%; Rango complex inh: 3.7%

What do the screens show for `O=C(CSc1nc2ccccc2c(=O)n1-c1ccccc1)N1CCN(CCO)CC1`?
miR-21 FLuc: -15%; Rango release inh: -5%; GLA inh pH 4.5: 1; Rango complex inh: 0.6%

Results for COc1ccc(Cn2nnnc2C(c2cc3cccc(C)c3[nH]c2=O)N2CCN(C)CC2)cc1 (centres undefined) ?
miR-21 FLuc: -3%; Rango release inh: 11%; GLA inh pH 4.5: 6; Rango complex inh: 0.0%

How did COc1ccc(S(=O)(=O)N(C)C)cc1NC(=O)Cc1cccs1 do in these assays?
miR-21 FLuc: -7%; Rango release inh: 0%; GLA inh pH 4.5: -11; Rango complex inh: -0.1%

What do the screens show for `CCN(CC)C(=O)C1CCCN(C(=O)c2cc(COc3ccc4ncccc4c3)on2)C1` (centres undefined)?
miR-21 FLuc: 24%; Rango release inh: 9%; Rango complex inh: 1.9%

How did C[C@@H](CN1CCC[C@H]1CN1C(N)=NC[C@@H]1Cc1ccccc1)N1C[C@@H](Cc2ccccc2)N(CCc2ccc(Cl)c(Cl)c2)C1=N do in these assays?
Rango release inh: 1%; Rango complex inh: 4.5%

How did CC(C)c1onc(C(=O)Nc2ccc3c(c2)OCO3)c1[N+](=O)[O-] do in these assays?
miR-21 FLuc: -20%; Rango release inh: 6%; Rango complex inh: 0.0%

How did COc1cc2c(cc1OC)C(c1ccc(-c3ccc(Cl)c(Cl)c3)o1)=NCC2 do in these assays?
miR-21 FLuc: inconclusive; Rango release inh: -32%; GLA inh pH 4.5: -2; Rango complex inh: inconclusive

What do the screens show for `COC(=O)c1nn(C23CC4CC(CC(C4)C2)C3)c2c1C(=O)N(c1ccc(Br)cc1)C2=O`?
miR-21 FLuc: -4%; Rango release inh: -3%; GLA inh pH 4.5: 5; Rango complex inh: -2.4%

How did O=S(=O)(Nc1cccc(-c2nc3cccnc3s2)c1)c1ccc2c(c1)CCCC2 do in these assays?
miR-21 FLuc: -23%; Rango release inh: 3%; GLA inh pH 4.5: 6; Rango complex inh: 1.7%

Results for Cc1cccc(/C=C/c2onc(C)c2S(=O)(=O)N2CCC(C(=O)N3CCCCC3)CC2)c1 ?
miR-21 FLuc: 1%&8%; Rango release inh: 1%; Rango complex inh: 1.5%

Results for Cc1ccc(-n2[nH]c(C)c(/C=N/Nc3ccc([N+](=O)[O-])cc3[N+](=O)[O-])c2=O)cc1 ?
miR-21 FLuc: -2%; Rango release inh: 15%; GLA inh pH 4.5: -7; Rango complex inh: 2.1%

Results for CCn1c(=O)n(CC)c2cc(NS(=O)(=O)c3ccccc3)ccc21 ?
miR-21 FLuc: 2%; Rango release inh: 16%; Rango complex inh: -5.4%

What do the screens show for `COCCN1Cc2cccc(C(=O)NCC3CCN(CC(C)C)C3)c2C1=O` (centres undefined)?
miR-21 FLuc: -4%; Rango release inh: 0%; GLA inh pH 4.5: 0; Rango complex inh: -0.9%

Screens: PubChem, National Center for Advancing Translational Sciences (NCATS)
